Source: PubChem BioAssay
NPYLR7 agonist: agonists of mosquito NPYLR7 receptor, primary screen, cell-based, Aedes aegypti, calcium fluorescence, mosquito biting behavior. 0.15% of 270,000 active. Aedes aegypti neuropeptide Y-like receptor 7 (NPYLR7). AID 1259423, 2018. activation, % at 10 µM. HEK293T NPYLR7/Galpha15, GCaMP6s calcium fluorescence; in the data active = activation above about 40%;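 note: 0% = vehicle and 100% = reference agonist at the receptor; some compounds past the cut are filed as inactive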
NPYLR7 agonist max-min: recorded beside NPYLR7 agonist, whose call it bears; activation, %; measured here: Max-Min RFU normalised activation; some inactives read as strong as hits;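 span of the calcium signal over five minutes; 0% = vehicle and 100% = native peptide agonist; compound fluorescence can raise it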
Numbers without * were called inactive; & = joins results of further samples. An excerpt; the hit share may differ from the screen's.

smiles	NPYLR7 agonist	NPYLR7 agonist max-min
O=C(Nc1nnc([C@@H]2C[C@H](O)[C@@H](CO)O2)s1)Nc1ccccc1Oc1ccccc1	-4	-4
CCC(C)Oc1ccc(C(=N)N)cc1 (stereo unspecified)	20	13
CC(C)CN(Cc1cnn(C)c1)C(=O)c1cccc2c(=O)c3ccccc3[nH]c12	15	3
CCOc1cccc(CN2CCCn3cccc3C2c2ccc(CC)cc2)c1 (stereo unspecified)	2	10
CC(=O)OC[C@@H]1CN(Cc2ccccc2)C[C@H](n2ccc3c(N4CCN(C)CC4)ncnc32)O1	6	16
Cc1cc2ccccn2c1C(=S)NC(=O)c1ccccc1	0	-1
Cc1ccc(Cl)cc1N1CCN(C(=O)c2ccc3c(=O)n(-c4ccccc4)c(=O)[nH]c3c2)CC1	-8	-9
CCc1nnc(CN(C(=O)c2sc(C(C)C)nc2C)C(C)C)o1	0	-2
O=C(O)C1CC(O)CN1C(=O)C12CC3CC(CC(C3)C1)C2 (stereo unspecified)	20	17
COC(=O)c1cc(S(=O)(=O)N2CCC(C(N)=O)C2)c(F)cc1F (stereo unspecified)	5	1
COc1cccc(N2C(=O)CSC2c2ccc(NC(=O)C(Cl)c3ccccc3)cc2)c1 (stereo unspecified)	19	13
CCc1ccc(-c2ccc(NCc3cccc(C)c3)nn2)cc1S(N)(=O)=O	-15	-23
Cc1ccccc1C=CC(=O)Nn1cnc2scc(-c3ccco3)c2c1=O	6	8
O=C(c1cncc(Br)c1)N1CCC(n2c(=O)oc3ccc(Cl)cc32)CC1	4	0
Cc1ccccc1Oc1ncccc1CNCc1cc2c(cc1Cl)OCO2	14	6
CCOC(=O)C1(C)CCCCCN1C(=O)c1snnc1C (stereo unspecified)	-2	-8
COc1ccc2c(c1)CC(NCc1ccc(C(=O)N3CCCC3)cc1)CC2 (stereo unspecified)	-10	-14
O=C(CC1(c2ccccc2)CC(=O)N(Cc2ccc3c(c2)OCO3)C1=O)N1CCc2ccccc2C1 (stereo unspecified)	20	0
O=C(NC1CCCCC1)C1CC(=O)N(c2ccc3c(c2)OCCO3)C1 (stereo unspecified)	4	1
COC(=O)c1cc(S(=O)(=O)N2CCCC2)cn1C	3	-1
O=C(Nc1nc([C@H]2C[C@H](O)[C@@H](CO)O2)cs1)C1CCCCC1	1	11
Cc1cccc(Cc2nc3c(c(N4CCOCC4)n2)CN(S(=O)(=O)c2ccc([N+](=O)[O-])cc2)CC3)c1	15	17
CN1C(=O)N(c2ccccc2)C(=O)C1c1ccc(Cl)c(Cl)c1 (stereo unspecified)	-6	-5
c1ccc2oc(NC3=NCN(CCCN4CCOCC4)CN3)nc2c1	3	4
OC(Cc1ccccc1)CN(Cc1ccccc1)CC1CC(c2ccc(Cl)c(Cl)c2)=NO1 (stereo unspecified)	-4	-3
O=S(=O)(Nc1nccs1)c1ccc(-n2cccc2)cc1	1&-1	-2&-4
Cc1ccc2nc(C)c(NC(=O)C(C)(C)C)c(=O)n2c1	0	0
COc1ccc2nc(NC(=O)c3ccc(OC)c([N+](=O)[O-])c3)sc2c1	-13	-17
COCCCN(CC(=O)N1CCc2sccc2C1c1ccc(Cl)cc1)C(=O)CCl (stereo unspecified)	-7	-6
Cc1ccc(C(=O)N2CCC(n3nccc3NC(=O)C3CCOC3)CC2)cc1 (stereo unspecified)	-2	-4
CN1C(=S)N(c2ccc3ccccc3c2)C(=O)/C1=C\c1ccncc1	13	20
Cc1[nH]n(-c2nc(-c3ccc(Br)cc3)cs2)c(=O)c1N=Nc1cccc(Br)c1	8	11
COc1ccccc1C(=O)N1CCC2(CCCN(CC3CCC3)C2=O)C1 (stereo unspecified)	-13	-15
COCCNC(=O)Cn1cnc2c(nnn2-c2cccc(F)c2)c1=O	-4	-9
CC(C)(C(=O)N1CCc2c(nc(-c3ccncc3)[nH]c2=O)C1)n1cccc1	7	1
Cn1c(-c2ccncc2)nn(CN2CCN(c3ncccn3)CC2)c1=S	-1	-4
CCC(C)C(=O)O[C@H]1C[C@H](O)C=C2C=C[C@H](C)[C@H](CC[C@@H](O)C[C@@H](O)CC(=O)O)C21 (stereo partly specified)	-13&1	-18&2
CCC(O)CN(CCC(C)C)Cc1cccc(OC)c1 (stereo unspecified)	19	10
CC1C(=O)N(c2cccc(C(F)(F)F)c2)CCN1Cc1c(F)cccc1F (stereo unspecified)	-2	-3
O=C(O)c1[nH]ncc1CN1CCCN(Cc2ccccc2F)CC1	19	11
CN(C1CCCCC1)S(=O)(=O)N1CCc2ccccc21	3	2
O=S(=O)(Nc1ccc(-n2cnnn2)cc1)c1ccc(Cl)cc1	2	1
Cc1ccc(C)c(-n2cc(CN[C@@H](C)C(N)=O)c(-c3ccccc3)n2)c1	17	5
COc1ccc(OC)c(S(=O)(=O)NCCCn2ccnc2)c1	2	-1
COc1ccc(-c2cnc(N)nc2-c2ccc(OCc3ccc(F)cc3)cc2O)cc1OC	3	2
CCOc1ccc(-c2nc(-c3ccc(CCNS(C)(=O)=O)cc3)cs2)cc1OC	-1	19
O=C(O)CC1Sc2nncn2N=C1c1ccc(Cl)cc1 (stereo unspecified)	9	9
Oc1ccc(/C=N\Nc2nc(N3CCCC3)nc(N3CCCC3)n2)cc1	-1	-5
CCOC(=O)c1ccc(NC(=O)c2ccc(=O)n(Cc3cccc(C)c3)c2)cc1	16	12
NC(=O)c1cccc(CC2CCN(C(=O)c3[nH]ncc3Cl)C2)c1 (stereo unspecified)	10	4

Exported with two lines to a compound: entries from further up.
The line under a structure holds: NPYLR7 agonist | NPYLR7 agonist max-min
COC(=O)c1cc(S(=O)(=O)N2CCCC2)cn1C
  3 | -1
O=C(Nc1nc([C@H]2C[C@H](O)[C@@H](CO)O2)cs1)C1CCCCC1
  1 | 11
Cc1cccc(Cc2nc3c(c(N4CCOCC4)n2)CN(S(=O)(=O)c2ccc([N+](=O)[O-])cc2)CC3)c1
  15 | 17
CN1C(=O)N(c2ccccc2)C(=O)C1c1ccc(Cl)c(Cl)c1 (stereo unspecified)
  -6 | -5
c1ccc2oc(NC3=NCN(CCCN4CCOCC4)CN3)nc2c1
  3 | 4
OC(Cc1ccccc1)CN(Cc1ccccc1)CC1CC(c2ccc(Cl)c(Cl)c2)=NO1 (stereo unspecified)
  -4 | -3
O=S(=O)(Nc1nccs1)c1ccc(-n2cccc2)cc1
  1&-1 | -2&-4

(more compounds)
smiles	NPYLR7 agonist	NPYLR7 agonist max-min
CCCc1ccc(-c2nc(-c3cccnc3)no2)cc1	-3	-8
O=C(NCc1ccc(C(F)(F)F)cc1)C1CCS(=O)(=O)C1 (stereo unspecified)	-2&7	-2&2
CC(C)CNCCSc1nccn1C	-1	-5
CN(C)CCNCCOc1ccc(-c2ccccc2)cc1	1	0
O=C(CC1=CCCCC1)N1CCCC(N2CCN(c3cccc(C(F)(F)F)c3)CC2)C1 (stereo unspecified)	1	2
CCOc1ccc(-n2c(C(C)N(CCc3ccccc3)C(=O)COc3ccccc3)nc3ccccc3c2=O)cc1 (stereo unspecified)	20	28
CC1(C(=O)NCc2ccc(C(F)(F)F)cc2)CCN1C1Cc2ccccc2C1 (stereo unspecified)	7	2
NC(=O)Nc1cccc(C(=O)OC(C(=O)N2CCCCC2)c2ccccc2)c1 (stereo unspecified)	4	2
COc1cc(C(Nc2cc(C)ccn2)c2c(C)[nH]c3ccccc23)cc(OC)c1OC (stereo unspecified)	-5	-5
CC(C)Cc1nc(N2CCN(C(=O)NC(C)(C)C)CC2)c2c(-c3cccc(C(F)(F)F)c3)noc2n1	-6	-7
Cc1ccc(CN2CCN(C(=O)CCc3ccccn3)CC2=O)cc1	-3	-7
O=C(Cc1cccc(F)c1)N1CCC(n2nc(-c3ccccc3)cc2-c2ccccc2)CC1	1	-1
Cn1c(SCc2cc(Cl)c3c(c2)OCCO3)nnc1-c1ccc(Cl)cc1	8	5
COCc1c(Br)c(C)nc(OCC(=O)N/N=C\c2cc(Br)ccc2O)c1C#N	24	25
C=CCN1Cc2cc(OC)ccc2N(C[C@@H](O)COCc2ccccc2)CCC1=O	0	6
CC(C)Nc1ccc(C(=O)NCc2cccs2)cn1	3	0
CCOCC(=O)OCC(=O)NC12CC3CC(CC(C3)C1)C2	5	4
CCOc1ccccc1N1CC(c2nc3ccccc3n2CCOC)CC1=O (stereo unspecified)	-1	26
Cc1cc(=O)[nH]c(-n2nc(-c3cccs3)cc2NC(=O)c2ccc(Cl)cc2Cl)n1	3	1
O=C(OCc1ccccc1)C1CC(O)CN1C(=O)Cc1ccccc1F (stereo unspecified)	4	2
CCOc1ccccc1NC(=O)C(C)Nc1cccc(C)c1C (stereo unspecified)	-2	-2
COc1ccc(C2=NN(C(=O)CN3CCC(C(N)=O)CC3)C(c3ccc(F)cc3)C2)cc1 (stereo unspecified)	3	5
CCOC(=O)c1sc(N)c(C(=O)OCC)c1CNC(C)(C)C	2	8
Cc1nn(CC(=O)NC2CC2)c(C)c1[N+](=O)[O-]	19	24
O=C(CSc1nccn2nc(-c3ccccc3)cc12)N1CCN(c2ccccc2F)CC1	-2	-7
O=C(CSc1nnc(-c2ccco2)o1)N1CCCCC1	-3	-3
COc1ccc(N(C(=O)CNC(C)=O)C(C(=O)Nc2ccccc2)c2ccncc2)cc1 (stereo unspecified)	-5	-7
O=C1CCC(C(=O)N2CCC(Cc3ccccc3)CC2)CN1CC1CCCCC1 (stereo unspecified)	1	-3
O=S(=O)(NCc1ccccc1)N1CCCC(Oc2ccc(F)cc2)C1 (stereo unspecified)	4	3
COc1ccccc1Nc1ncnc2ccc(C)cc12	-8	-10
CN(CCOc1ccccc1)Cc1nc(-c2ccccc2)no1	-3	-2
CN(C)C(=O)Nc1cccc(C2SCC(=O)N2c2ccc(F)cc2)c1 (stereo unspecified)	44	39
Cc1ccc(-n2nnn(CN(C)C3CCS(=O)(=O)C3)c2=S)c(C)c1 (stereo unspecified)	10	4
NC(=O)c1cnn2c(C(F)(F)F)cc(-c3ccc(F)cc3)nc12	-9	-14
N#CC(=Cc1cccc(Br)c1)C(=O)Nc1nccs1	0	-2
Cc1ccc(C)c2c(C)c(C(=O)NCC3(C)CCCO3)oc12 (stereo unspecified)	0&8	10&4
Cc1ccc(C(=O)N2CCC(n3nc(C(C)C)cc3C(C)C)CC2)c(Cl)n1	-6	0
CSCC(=O)NC(C)(C)c1cccc(Cl)c1	-1	-3
Cc1cccc(C(CNc2nccc(C(F)(F)F)n2)N2CCOCC2)c1 (stereo unspecified)	8	7
COc1ccccc1C(=O)N1CCSC1c1ccc(Cl)cc1Cl (stereo unspecified)	-10	-2
COc1cc(C=CC(=O)Nc2sc(C)c(C)c2C#N)cc(OC)c1OC	5	1
O=c1ccc(-c2cccc(Br)c2)nn1Cc1cccc(F)c1	13	6
CN(C)C(=O)c1ccc(-c2ccc(C3CCCCC3)cc2)s1	3	11
O=C(CN1CN(c2ccccc2)C2(CCN(C(=O)c3ccc4ccccc4c3)CC2)C1=O)NCC1CCCCC1	13	8
O=C(NCCc1cccnc1)c1ccc(Cl)cc1	1	1
CN(c1ccc(NC(=O)C2COCCO2)cc1F)C1CCCCC1 (stereo unspecified)	0	-2
COc1ccccc1C(=O)Nc1ccc2c(c1)CN(Cc1c[nH]c3ccccc13)CC2	3	2
Cc1cccc2c(=O)cc(C)n(CC(=O)Nc3ccccc3)c12	9	11
CCCS(=O)(=O)N1CCN(S(=O)(=O)CCC)CC1	8	1
O=C(NCCc1csc(-c2cccnc2)n1)c1ccc2c(c1)CCCO2	-6	-9

Going on with the list.
structure	NPYLR7 agonist	NPYLR7 agonist max-min
O=C(c1cc(COc2cccc(F)c2)[nH]n1)N1CCOCC1CO (stereo unspecified)	-1	-1
O=S(=O)(Nc1cccc(-c2nnnn2C2CC2)c1)c1ccccc1Br	1	33
O=C(O)CCSc1ccccn1	3	-13
CC(C)(C)C1CCC(OC(=O)CCC(=O)O)CC1 (stereo unspecified)	8	8
CCCC(=O)Nc1cccc(C(=O)N2CCC(Cc3noc(C4CC4)n3)CC2)c1	-3	-7
CCOC(=O)c1nc2cc(C)c(C)cc2nc1N1CCN(C(=O)c2ccc(C(C)(C)C)cc2)CC1	7	4
Clc1cccc(-c2noc(CSc3nnc(C4CC4)n3C3CC3)n2)c1	1	3
O=C(NCCn1ncnn1)c1cc(Cc2ccccc2)ccc1O	0	21
O=C1CN(C(=O)c2cccs2)CC(O)CN1Cc1cccc(F)c1 (stereo unspecified)	22	20
Cc1ccc(C)c(NC(=O)CSc2ncnc3sc4c(c23)CCC4)c1	-3	-9
CCC(=O)N1CCC1(C)C(=O)Nc1ccc(F)cc1 (stereo unspecified)	6	3
CC1=C(CCN2CCC(CNS(C)(=O)=O)C2)C(C)(C)CCC1 (stereo unspecified)	6	-4
CCOC(=O)c1ccc(OC2CC3CCC(C2)N3C(=O)c2ccc(CSc3nc4cc(Cl)ccc4o3)cc2)cc1 (stereo unspecified)	8	-6
O=C(CN1C(=O)c2ccccc2C1=O)Nc1ccc(Cl)cn1	1	-3

Pulled one by one from above, 3 records:
structure	NPYLR7 agonist	NPYLR7 agonist max-min
CC1=C(CCN2CCC(CNS(C)(=O)=O)C2)C(C)(C)CCC1 (stereo unspecified)	6	-4
CCOC(=O)c1ccc(OC2CC3CCC(C2)N3C(=O)c2ccc(CSc3nc4cc(Cl)ccc4o3)cc2)cc1 (stereo unspecified)	8	-6
CCC(=O)N1CCC1(C)C(=O)Nc1ccc(F)cc1 (stereo unspecified)	6	3
